# Screening data from PubChem BioAssay.
# VACV Venus inh – inhibitors of vaccinia virus (Venus reporter); Vaccinia virus Venus reporter expression, fluorescence; Potency, µM (highest dose often 36.5 µM), for the others: at the highest dose activity change, negative = inhibition, most hits filed as inhibitors; hit rate 0.46% among 330,000; active means well fitted inhibition curve with a large enough effect; inconclusive means small, poorly fitted or top-dose-only effect; inactive means no such curve, though single readings can be large or run the other way; tested in A549 cells; note: nearly all actives have a fitted effect of over 30% in size; inactives centre near -10
# VACV mCherry inh – inhibitors of vaccinia virus infection (mCherry reporter signal) | Potency, µM (top dose mostly 36.5 µM), without a hit: top-dose activity change, negative = inhibition, usual class: inhibitors | hit rate 0.63% among 310,000 | Vaccinia virus mCherry reporter infection, fluorescence; about a quarter of the inactives have no number; active = well fitted inhibition curve with a large enough effect; inconclusive = small, poorly fitted or top-dose-only effect; inactive = no such curve, though single readings can be large or run the other way; tested in A549 cells; note: nearly all actives have a fitted effect of over 35% in size; inactives centre near -10
# Active calls of the source: *; i = inactive; u = inconclusive; x = not tested or not shown; [ ] = another dose, or the depositor's remark. % is set by controls: 0 for no effect and ±100 for the full control effect; potency is the fitted concentration of half-maximal effect.
# Preview, 4 compounds:
# Under each structure: VACV Venus inh | VACV mCherry inh
- COc1cccc(C(C(=O)NC2CCCCC2)N(C(=O)c2ccco2)c2ccccc2OC)c1 (stereo not given)
→ -16% | -17%
- CCCn1cc(S(=O)(=O)c2cccc(Cl)c2)c(=O)c2cc(F)c(N3CCOCC3)cc21
→ -10% | -3%
- CC(=Nc1ccccc1)C1=C(O)C(CC(C)C)NC1=O (stereo not given)
→ -15% | -3%
- O=C(c1cc2c(s1)-c1ccccc1OC2)N1CCN(c2ccc(F)cc2)CC1
→ -22% | -17%

# All compounds of this part, from the first entry:
# Under each structure: VACV Venus inh | VACV mCherry inh
- COc1cccc(C(C(=O)NC2CCCCC2)N(C(=O)c2ccco2)c2ccccc2OC)c1 (stereo not given)
→ -16% | -17%
- CCCn1cc(S(=O)(=O)c2cccc(Cl)c2)c(=O)c2cc(F)c(N3CCOCC3)cc21
→ -10% | -3%
- CC(=Nc1ccccc1)C1=C(O)C(CC(C)C)NC1=O (stereo not given)
→ -15% | -3%
- O=C(c1cc2c(s1)-c1ccccc1OC2)N1CCN(c2ccc(F)cc2)CC1
→ -22% | -17%
- O=C(NCC(c1ccco1)N1CCN(c2ccccc2)CC1)c1cccs1 (stereo not given)
→ -9% | -2%
- O=S(=O)(c1cccs1)N1CCN(c2ccccc2)CC1
→ -5% | -22%
- CC1=C(C)C(OCCBr)N(c2cc(O)c(Cl)cc2F)C1=O (stereo not given)
→ -5% | -11%
- Cc1ccc(CN2CCCN(Cc3ccc(Cl)cc3)S2(=O)=O)cc1
→ 5% | -5%
- CCCCCC(C)n1[nH]c(=O)c2c(C)cc(C)nc21 (stereo not given)
→ -19% | -7%
- C=CCn1c(SC(F)F)nc2scc(-c3ccco3)c2c1=O
→ -26% | u
- Cc1onc(-c2c(Cl)cccc2Cl)c1C(=O)Nc1ccc2c(c1)OCCO2
→ -6% | -20%
- CC(C)CC(=O)NC(NC(=S)Nc1sc2c(c1C#N)CCCC2)C(Cl)(Cl)Cl (stereo not given)
→ -23% | u
- CCC(C(=O)NC(C)(C)C)N(C(=O)Cn1nnc(-c2ccccc2F)n1)c1cnc2ccccc2c1 (stereo not given)
→ -3% | -20%
- Cc1cccc(C(=O)Nc2c(C(=O)N3CCN(c4ccc(F)cc4)CC3)oc3ccccc23)c1
→ -3% | -11%
- O=C(NC1CCCCC1)C(c1ccc(O)cc1)N(C(=O)c1cnccn1)c1cccc(F)c1 (stereo not given)
→ -4% | -18%
- COCCCn1c(=N)c(C(=O)NCC2CCCO2)cc2c(=O)n3cccc(C)c3nc21 (stereo not given)
→ 1% | -15%
- O=C(Nc1ccc(O)c2c(=O)cc(-c3ccccc3Cl)oc12)c1ccc(Cl)cc1Cl
→ -19% | -5%
- Cc1occc1C(=O)NNC(=O)c1ccc(F)cc1
→ -16% | -19%
- O=C(Cn1cnc2c(OCc3ccccc3)ncnc21)NCCc1c[nH]c2ccccc12
→ u | -5%
- CCOc1ccc(Cc2nccc3cc(OCC)c(OCC)cc23)cc1OCC
→ -28% | u
- CCc1cccc(C)c1NC(=O)CN1C(=O)c2cccc3cccc1c23
→ 31%[activator] | 21%
- COc1ccc(S(=O)(=O)c2cn(C)c3ccc(C)cc3c2=O)cc1
→ -1% | -9%
- O=C(NC1CCCCC1)c1ccc(CNc2nc(=S)[nH]c3ccccc23)cc1
→ -4% | i
- CCOC(=O)N1CCC(NC(=O)CN2C(=O)CCSc3ccccc32)CC1
→ 2% | 2%
- COc1ccc(N2CCCn3c2nc2c3c(=O)n(Cc3ccccc3)c(=O)n2C)c(OC)c1
→ -3% | -8%
- CCOC(=O)C1C(C#N)=C(N)OC(C)=C1c1ccncc1 (stereo not given)
→ -36% | x
- O=P(O)(O)c1ccccc1OCCCCCOc1ccccc1P(=O)(O)O
→ -1% | i
- N#CCN1CCN(CC(=O)Nc2ccc(OCc3ccccc3)cc2)CC1
→ -5% | -9%
- COc1cc(CN(C(=O)COc2ccccc2Cl)c2ccccn2)cc(OC)c1OC
→ -10% | i
- Brc1ccc(C2=Nn3c(nnc3-c3cccnc3)SC2)s1
→ -6% | -14%

# Looked up above:
# VACV mCherry inh, Cc1onc(-c2c(Cl)cccc2Cl)c1C(=O)Nc1ccc2c(c1)OCCO2 reads -20%
# VACV mCherry inh, CCC(C(=O)NC(C)(C)C)N(C(=O)Cn1nnc(-c2ccccc2F)n1)c1cnc2ccccc2c1 (stereo not given) reads -20%

# Next part
# Under each structure: VACV Venus inh | VACV mCherry inh
- CN(C(=O)COC(=O)CNC(=O)CNC(=O)c1ccc(Cl)cc1Cl)c1ccccc1
→ -20% | -10%
- COc1cc(C2CC(=O)NC3=C2C(=O)CC(C)(C)C3)ccc1O (stereo not given)
→ -8% | x
- COc1ccc2[nH]c3c(c2c1)CCN(C(=O)c1cccc(Cl)c1)C3c1ccc(F)cc1 (stereo not given)
→ 4% | u
- NNC(=O)c1ccc(N2CCc3ccccc32)c([N+](=O)[O-])c1
→ -1% | -12%
- COc1ccc(Cn2c(C(=O)O)c(CNCCc3ccccc3Cl)c3ccc(C)cc32)cc1
→ u | u
- CCC(=O)N1CCc2cc(Br)cc(S(=O)(=O)CCC(=O)Nc3cccc(C)c3C)c21
→ 4% | -17%
- Cc1ncn(-c2ccc(C(=O)Oc3ccccc3)cn2)n1
→ 0% | -6%
- COC(=O)C1=C(c2ccc(F)cc2F)C[C@@H]2CC[C@H]1N2C
→ -5% | i
- CCOc1ccccc1OCCCOc1ccc([N+](=O)[O-])cc1Cl
→ -27% | x
- CCOC(=O)N1CCN(C(=O)c2ccc(CS(=O)c3cccc(C)c3)o2)CC1 (stereo not given)
→ -8% | i
- CC(=O)Nc1ccc(S(=O)(=O)N2CCN(CC(=O)NC3CCCC3)CC2)cc1
→ -3% | -11%
- COc1cccc(C2NC(=O)c3n[nH]c(-c4cccs4)c32)c1 (stereo not given)
→ -14% | -12%
- CCCCCC(=O)N1C[C@H](O)[C@@H](n2cc(C3CC3)nn2)C[C@@H]1c1ccc(OC)cc1
→ -3% | -13%
- O=C(Nc1ccc(Cl)cc1)Nc1ccc(N2CCOCC2)cc1
→ -14% | -14%
- O=C(COc1ccc(Br)cc1)N1CCCCCC1
→ -13% | -10%
- COCCCNC(=O)c1ccc2sc(C3=C[C@@H](O)[C@@H](O)[C@@H](CO)O3)nc2c1
→ 2% | -11%
- COc1cc(C(=O)NNC2=CC(=O)CC(C)(C)C2)cc(OC)c1OC
→ -5% | -20%
- COc1ccc(S(=O)(=O)Oc2ccc3c(c2)O/C(=C\c2cccnc2)C3=O)cc1
→ -16% | i
- CCCCNC(=O)C1c2ccccc2OCC(=O)N1Cc1ccccc1 (stereo not given)
→ 4% | 0%
- COc1ccc(NC(=O)c2cc(SC)ccc2Cl)cc1
→ -24% | -1%
- CC1(C)CNC(=O)C=C(c2ccccc2)C1
→ 5% | i
- CCOC(=O)[C@]12CCCC=C1N(Cc1ccccc1)C(=O)[C@H](CC(=O)NCC13CC4CC(CC(C4)C1)C3)C2
→ u | i
- NS(=O)(=O)c1cccc(NC(=O)CSc2nnc(NC3CC3)s2)c1
→ -1% | i
- COCc1cc(C)nc2sc(C(=O)OC(C)C)c(N)c12
→ -26% | x
- CC(=O)C1=C(C)NC(SCC(N)=O)=C(C#N)C1c1sccc1C (stereo not given)
→ -9% | i
- COc1cc(C(=C(CC(=O)O)C(=O)O)c2ccc3c(c2)OCO3)cc(OC)c1OC
→ -3% | i
- CCOC(=O)N1CCC(Nc2c(N3CCN(c4cccc(C(F)(F)F)c4)CC3)c(=O)c2=O)CC1
→ -13% | i
- CCOc1ccc(CCNC(=O)c2cc3c(=O)n(CC)c4ccccc4c3s2)cc1OCC
→ -2% | -5%
- Cc1ccc(C)n1-c1sccc1C(=O)O
→ 10% | -10%
- CC(=O)Nc1ccc(NC(=O)c2cc(-c3ccc(F)cc3C)n[nH]2)cc1
→ -2% | 0%

# Additional entries follow.
smiles,VACV Venus inh,VACV mCherry inh
COC(=O)c1ccc(OCC2c3cc(OC)c(OC)cc3CCN2C(=O)C(C)C)cc1 (stereo not given),-7%,-4%
O=C(c1ccc(N2CC3CC(C2)c2cccc(=O)n2C3)c([N+](=O)[O-])c1)N1CCCC1 (stereo not given),1%,i
O=C(NC1CCCCC1)c1cccc(NC(=O)c2ccccc2Cl)c1,-16%,-10%
COc1cc(/C=C2\CCCc3c2nc2ccccc2c3C(=O)O)cc([N+](=O)[O-])c1O,3%,-6%
Cc1c(NC(=O)CSc2ncccn2)c(=O)n(-c2ccccc2)n1C,-9%,i
Cc1cc(F)cc(-c2cc(C(=O)NCc3ccc(C(F)(F)F)cc3)[nH]n2)c1,-2%,15%
OC(c1ccc(Cl)cc1)c1ncc(-c2cccc(F)c2)[nH]1 (stereo not given),-10%,i
Cc1ccc2nc(Cl)c3cc(C(=O)NCCCN4CCC(C)CC4)sc3c2c1,-9%,-6%
CSc1ccccc1C(=O)N1CCN(S(=O)(=O)c2sc(C(=O)O)c(C)c2C(=O)O)CC1,-13%,i
O=C(/C=C/c1cccs1)Nc1sc2c(c1C(=O)O)CCCC2,-20%,i
Cc1cc(NC(=O)c2oc3ccccc3c2C)ccc1-n1cnnn1,-16%,-21%
O=C1CSC(c2cccc(F)c2)N1c1c(F)cccc1F (stereo not given),-1%,i
COc1ccc(CC2c3cc(OC)c(OC)cc3CCN2C)cc1O (stereo not given),-6%,-5%
COc1ccccc1N1CCN(Cc2cc3c(cc2Br)OCCO3)CC1,8%,-3%
CC(=O)Nc1ccc(S(=O)(=O)N(C)CC(=O)OCC(=O)N2CC(C)OC(C)C2)cc1 (stereo not given),-8%,0%
COc1ccc(C(=O)Nc2ccc(Cn3ccnc3)cc2)cc1OC,5%,5%
CCOc1ccccc1N(C(=O)Nc1ccc(Cl)cc1)C1=NCCS1,-13%,i
CC(C)(C)c1ccc(NC(=O)CCNC(=O)c2ccco2)cc1,-4%,i
CCc1nc2ccccc2c(=O)n1NC(=O)c1c(O)c2ccccc2[nH]c1=O,-2%,-3%
Cc1ccc(C(=O)Nc2ccccc2-c2ccccc2)cc1S(=O)(=O)Nc1cccc(C)c1C,u,-29%
COc1ccc(-c2nc3cc(NC(=O)Cc4ccc(Cl)cc4)ccc3o2)cc1OC,u,u
O=C(CN1C(=O)CSc2ccc(S(=O)(=O)N3CCOCC3)cc21)NCc1ccc(F)cc1,-15%,i
COCc1nn2c(N)c(C#N)cnc2c1-c1ccccc1,-19%,x
O=C(CSc1ccc(Cl)cc1)c1ccco1,-6%,-10%
COc1ccc(Cl)cc1NC(=O)CN(C)S(=O)(=O)c1cccs1,-14%,17%
C=CC[C@@H](CC(=O)N(CCO)Cc1ccccc1)C(=O)N[C@H](COC(=O)[C@H](CC=C)CC(=O)OC(C)(C)C)Cc1c[nH]c2ccccc12,-24%,u
Cc1cccc(CS(=O)(=O)Cc2ccc(C(=O)NCCc3ccccc3)o2)c1,-13%,-8%
CC(=O)OC1(c2ccc(C)cc2)CN2CCC1c1ccccc12 (stereo not given),-22%,x
COc1ccccc1CC(=O)Nc1cccc2c1CCCC2,-16%,-11%
Cc1ccccc1-c1nnc(-c2cccc3ccccc23)o1,4%,-7%
COc1cc(NC(=O)Cn2cc(S(=O)(=O)N3CCC(C)CC3)c3ccccc3c2=O)cc(OC)c1OC,-9%,-20%
C=CCOc1ccc(C2NC(=S)NC(c3ccccc3)=C2C(C)=O)cc1OC (stereo not given),-11%,-3%
CN(C)c1cccc2c(C=C(C#N)C#N)ccc(N(C)C)c12,-2%,2%
Cn1nnnc1SCC(=O)N1CCCc2ccccc21,-7%,-10%
O=C1C=C(O)CC(c2ccco2)C1 (stereo not given),0%,x
COc1ccccc1CCNS(=O)(=O)CCNC(=O)c1ccccc1,-13%,-24%
O=C(CN1CCCC1=O)NCCc1ccccc1,-3%,-24%
COC(=O)[C@]1(Sc2ccc(OC)cc2)CC(=O)N[C@@H]1c1ccccc1,-13%,-13%
CCOc1ccc(C(=O)Nc2c(C)nc(Nc3ccccc3)nc2Nc2ccccc2)cc1OCC,-20%,-23%
O=S(=O)(Nc1ccc2c(c1)OCCO2)c1cccs1,-18%,i
O=C(Oc1ccc2ccccc2c1)C1CCC1,-2%,-17%
CCN(C(=O)CSc1n[nH]c(-c2cc(Cl)ccc2OC)n1)C1CCS(=O)(=O)C1 (stereo not given),-11%,-21%
N#C/C=C(/N)N1CCN(c2ccc(Cl)c(Cl)c2)CC1,0%,x
O=C1CN(S(=O)(=O)c2cccc(C(=O)O)c2)c2ccccc2N1,0%,i
Clc1ccc(C2CC(c3cccs3)n3ncnc3N2)cc1 (stereo not given),4%[7.34 µM],i[7.34 µM]
COc1ccc(Nc2oc(-c3ccc(Cl)cc3)nc2C#N)cc1,u,u
O=C(C1CCC1)N1CCN(S(=O)(=O)c2ccccc2)CC1,-10%,-2%
CC1(C)CC(CC(=O)Nc2nccs2)(c2ccccc2)CCO1 (stereo not given),-11%,-13%
NCCC(=O)c1ccccc1N,-8%,-10%
Cc1oc(-c2ccc(C(=O)N(C)Cc3ccccc3)cc2)nc1CN1CCc2ccccc21,-25%,-27%
CCOc1ccc(-c2n[nH]c(C)c2Oc2ccccc2OC)c(O)c1,-23%,i
CCC(=O)N1c2ccccc2CC1C(=O)NCc1ccc(CC)cc1 (stereo not given),-8%,-7%
CC(=O)C1(C)CCC2C3C=C(C)C4=CC(=O)CCC4(C)C3CCC21C (stereo not given),-14%,-1%
CC1(C#N)c2ccccc2C(Br)=CN1C(=O)c1ccccc1 (stereo not given),-25%,-14%
